Screening results: PubChem, National Center for Advancing Translational Sciences (NCATS)
Prx2 Sm inh = Schistosoma mansoni Prx2 inhibition | S. mansoni Prx2 activity coupled to TGR/GSH (TGR is thioredoxin glutathione reductase), NADPH fluorescence loss, qHTS; some inactives read as strong as hits | Potency, µM | 65,000 compounds, 0.07% hits | AID 448; active means full or partial inhibition curve with a strong effect at the top dose; inconclusive means weaker partial or single-point curve; inactive means no accepted curve; also: series up to 57 µM; many of its hits are not listed in these tables
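Activity is read as the drop in NADPH fluorescence (365/450 nm), recorded every 30 sec for 8 min after H2O2 addition. Prx2 is coupled to TGR-driven NADPH oxidation through glutathione, in phosphate buffer pH 7.4.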
LT uptake inh = inhibitors of anthrax lethal toxin internalization; Cells, anthrax lethal toxin internalization, FRET ratio (460/530); Potency, µM (doses to about 40 µM), without a hit: at the highest dose activity change, negative = inhibition, hits mostly inhibitors; 70,000 compounds, 0.67% hits; AID 912; active = well fitted falling ratio curve with the 530 nm signal flat; inconclusive = other ratio curves, or a change in one channel alone; inactive = flat curves in the ratio and both channels; the % refers to the ratio; also: % is scaled to controls: 0 for no effect and ±100 for the full control effect; nearly all actives have a fitted effect of over 50% in size; tested in ME-180 cells; beta-lactamase reporter
Active calls of the source: *; u = inconclusive; x = not tested or not shown; & = joins results of further samples; [ ] = another dose, or the depositor's remark. Potency is read from the fitted curve at half-maximal effect. An excerpt; count on the stated rates, not on these rows.

Compound	Prx2 Sm inh	LT uptake inh
O=C(NC1CCCC1)c1sc(=S)n2c1[nH]c(=O)c1ccccc12	>57	10%
CC1(C)CC(=O)c2cc(OCC(=O)NCCCN3CCN(c4ccc(F)cc4)CC3)ccc2O1	>57	-7%
COc1ccc(S(=O)(=O)Cc2ccc(C(=O)N3CCN(c4cc(Cl)ccc4C)CC3)o2)cc1	>57	u
CC1(C)CC2CC(C)(CN2CC(=O)C(C#N)c2ccccc2)C1 (stereo not given)	>57	2%
CCOc1ccc(-n2cc(C(=O)N3CCC(C)CC3)c3cc(OC)c(OC)cc3c2=O)cc1	>57	7%
CCCCn1c2nc3ccccc3nc2c2c(=O)n(CCC(C)C)cnc21	>57	u
NC[C@H](O)c1ccc(O)c(O)c1	>57&>57	u
COc1ccc(-n2nnc3c(=O)n(CC(=O)N4CCC(C)CC4)cnc32)cc1	>57	17%
c1ccc(N2CCN(c3nnnn3-c3ccccc3)CC2)cc1	x	-15%
CCOC(=O)N1CCC(NC(=O)C2CCC(Cn3c(=O)[nH]c4ccccc4c3=O)CC2)CC1 (stereo not given)	>57	-12%
Cc1csc(SCC(=O)Nc2ccccn2)n1	>57	u
CP(C)(=O)CCC(=O)O	x	-1%
O=C(O)c1cccc(N2C(=O)C3CC=C(Cl)CC3C2=O)c1 (stereo not given)	>57	-4%
Cc1csc(NC(=O)CSc2nnc(-c3ccncc3)o2)n1	>57	15%
O=C1CCCc2nc(N3CCN(Cc4ccccc4)CC3)ncc21	>57	u
C(=N/n1c2ccccc2c2ccccc21)/c1ccco1	x	u
CC1(C)C=C(c2ccc(O)cc2)CC(C)(C)N1	>57	-3%
CC(C)C[C@H]1C(=O)N2CCC[C@@H]2[C@]2(O)O[C@](NC(=O)[C@H]3C=C4c5cccc6[nH]cc(c56)C[C@H]4N(C)C3)(C(C)C)C(=O)N12	>57	u
O=C1c2ccccc2C(=O)N1c1n[nH]c(CCc2ccccc2)n1	>57	-8%
COc1ccc2c3c(c(=O)oc2c1OCC(=O)C(C)(C)C)CCCC3	>57	-5%
CN1CCN(C(=O)C2CCN(S(=O)(=O)c3cnc[nH]3)CC2)CC1	>57	-2%
Cc1ccc(CCNC(=O)C2CCCN(S(=O)(=O)c3cnc[nH]3)C2)cc1 (stereo not given)	>57	-1%
CC(=O)S[C@H]1CC2=CC(=O)CC[C@@]2(C)[C@H]2CC[C@@]3(C)[C@H](CC[C@]34CCC(=O)O4)[C@@H]12	>57	-4%[3.58 µM]
CCN(CC)S(=O)(=O)c1cccc(-c2nnc(SCC(=O)c3cc(C)n(C4CC4)c3C)o2)c1	>57	5%
Cc1ccc(N2CC(C(=O)Nc3ccncc3)CC2=O)cc1 (stereo not given)	>57	-14%
Cc1ccccc1P(=O)(CO)c1ccccc1C	>57	-4%
Cc1ccc(-c2nn(C)c(=O)c3ccccc23)cc1CNS(C)(=O)=O	>57	-18%
CC(C)c1cc(NC(=O)CSc2nnc(-c3ccccc3F)n2C)on1	>57	2%
Cc1nc2ccc(S(=O)(=O)NC(C(=O)NC3CCCC3)C(C)C)cc2s1 (stereo not given)	>57	5%
O=C(C1=C(O)C(=O)N(CCN2CCOCC2)C1c1ccccn1)c1cccs1 (stereo not given)	>57	-12%

In a second layout: 4 of the compounds above.
mol: CCCCn1c2nc3ccccc3nc2c2c(=O)n(CCC(C)C)cnc21
  Prx2 Sm inh: >57	LT uptake inh: u

mol: O=C1c2ccccc2C(=O)N1c1n[nH]c(CCc2ccccc2)n1
  Prx2 Sm inh: >57	LT uptake inh: -8%

mol: CC(C)C[C@H]1C(=O)N2CCC[C@@H]2[C@]2(O)O[C@](NC(=O)[C@H]3C=C4c5cccc6[nH]cc(c56)C[C@H]4N(C)C3)(C(C)C)C(=O)N12
  Prx2 Sm inh: >57	LT uptake inh: u

mol: CP(C)(=O)CCC(=O)O
  Prx2 Sm inh: x	LT uptake inh: -1%

Later entries
Compound	Prx2 Sm inh	LT uptake inh
O=C(Nc1nncs1)c1c(F)c(F)c(F)c(F)c1F	>57	u
CC(C)(C)c1nc(NCC2CCCO2)c2nnn(Cc3ccccc3)c2n1 (stereo not given)	>57	-1%
COC(=O)c1c(NC(=O)c2cccs2)sc2c1CCCC2	>57	-6%
CC1(C)CCC(C)(C)c2c1ccc(O)c2Cc1c(O)ccc2c1C(C)(C)CCC2(C)C	>57	u
COc1ccccc1NC=C1C(=O)OC(C)(C)OC1=O	>57	0%
CN(C)CCN=Cc1c(O)n(CCC2=CCCCC2)c(=O)[nH]c1=O	x	-4%
COc1ccc(C(=O)N2CCCC(c3nc(-c4cccs4)no3)C2)cc1 (stereo not given)	>57	-8%
COc1ccc(NC(=O)c2cnc3ccccn3c2=O)cc1OC	>57	-5%
O=C(Nc1ccc(N2CCN(C(=O)c3ccco3)CC2)cc1)c1ccc(F)cc1	>57	-12%
FC(F)(F)c1cc(-c2ccccc2)nc(N2CCCCCC2)n1	>57	-7%
CCOC(=O)c1sc(N2C(=O)C(O)=C(C(=O)c3ccco3)C2c2ccccc2)nc1C (stereo not given)	>57	21%
COc1cccc(CN2CCCCC2c2cccnc2)c1 (stereo not given)	x	-5%
COCCn1nnnc1C(CC(C)C)N1CCN(C(=O)c2ccco2)CC1 (stereo not given)	>57	7%
O=C(CCn1c(=O)sc2ccccc21)Nc1nccs1	>57	4%
CC(=O)COC(=O)c1cccc(N2C(=O)C3C4C=CC(C4)C3C2=O)c1 (stereo not given)	>57	2%
CC1(CCc2ccc3c(c2)OCO3)NC(=O)c2ccccc2N1 (stereo not given)	x	2%
COCCn1c(C)cc(C(=O)COC(=O)CCc2ccc(S(=O)(=O)N3CCOCC3)cc2)c1C	>57	0%
O=C(CCc1ccccc1)Nc1cccc(-c2nnc(-c3ccco3)o2)c1	>57	-19%
COc1ccccc1NC(=O)CSc1nnc(C2CCCCC2)o1	>57	2%
CNc1nnc(CSc2nc3ccccc3s2)s1	>57	0%
CCCNC(=O)CN(C1CCCCC1)S(C)(=O)=O	>57	9%
CC1CCc2c(sc3ncnc(N4CCOCC4)c23)C1 (stereo not given)	x	-7%
Cc1ccc(NC(=O)C2C3C=CC4(CN(Cc5cccnc5)C(=O)C24)O3)cc1F (stereo not given)	>57	4%
CSCC[C@H](C=O)NC(=O)[C@H](CC(C)C)NC(=O)[C@H](CC(C)C)NC(C)=O	>57	u
NC(=O)C(=O)O	>57	-3%
O=C(Nc1cccc(C(F)(F)F)c1)c1cccnc1	>57	-9%
CCN(CC)C(=O)c1cc2sc3ccccc3c2s1	x	u
COc1ccc(O)c(C2NC(CC(C)C)(C(=O)O)C3C(=O)N(Cc4ccccc4)C(=O)C23)c1 (stereo not given)	>57	u
O=c1ccc2c(o1)/C(=C/C=C(Cl)Cl)CCC2	x	8%
O=c1[nH]c(=O)n(Cc2ccccc2)c(O)c1C=NCCCn1ccnc1	>57	-29%
CC1=C(C(=O)NCc2ccc3c(c2)OCO3)C2(CCC(C)CC2)OC1=O (stereo not given)	>57	-21%
C=CCc1cccc2cc(C(=O)N3CCN(C(=O)OCC)CC3)c(=O)oc12	>57	u
CCCCC(CC)C(=O)Nc1ccccc1C(=O)NC(C)C (stereo not given)	>57	-14%
COC1(c2cc(-c3ccccc3)nc(N)n2)CCCCC1	>57	-33%
CC(C)OC(=O)NCCOC(=O)Nc1cccc(Cl)c1	>57	0%
O=C(NCC1CCCO1)c1sc(=S)n2c1[nH]c(=O)c1ccc(C(=O)N3CCCCC3)cc12 (stereo not given)	>57	u
Cc1cc(=O)oc2cc(OCc3nnc(-c4ccccc4Br)o3)ccc12	>57	-14%
Cc1cc2nc(NC3=NCN(Cc4ccc5c(c4)OCO5)CN3)nc(C)c2cc1C	>57	0%
CC1=C(C(=O)N2CCC3(CC2)OCCO3)C2(CCC(C)CC2)OC1=O (stereo not given)	>57	-9%
Cn1cccc1C(=O)N1CCC2(CC1)CCN(c1ccc(-c3ccccc3)cc1)CC2	>57	-29%
O=C(Nc1ccc(Cl)cc1)Nc1ccc2c(c1)N1CCN=C1S2	>57	u
COc1cccc(-n2c(CNc3ccc(F)cc3)nnc2SCC(N)=O)c1	>57	u
CCc1ccc2nc(SCC(=O)N(CC)CC)c(C#N)cc2c1	>57	-7%
COc1cc(OC)c(C2C(C#N)=C(N)Oc3cc(C)n(CCCN4CCOCC4)c(=O)c32)cc1OC (stereo not given)	>57	-19%
CC(C)c1nccn1Cc1ccc(Cl)cc1Cl	>57	u
O=C(CN1C(=O)CSC1=O)Nc1ccccc1N1CCOCC1	>57	-6%
O=C1c2ccccc2CN1CCNS(=O)(=O)c1ccc(Cl)cc1	>57	15%
CC(C)Cn1c(=O)c(C(=O)Nc2ccccc2S(N)(=O)=O)c(O)c2ccccc21	x	u
CCOC(=O)Nc1ccc(S(=O)(=O)NCc2ccccc2)cc1	>57	-14%
CCOc1ccc(C2C(C(=O)Nc3ccc(F)cc3)=C(C)Nc3nc(CCCO)nn32)cc1 (stereo not given)	>57	-4%
CS(=O)(=O)N1CCN(C(=O)c2ccc(-c3ccccc3)cc2)CC1	x	-3%
CCC(c1nnnn1CCc1ccccc1)N1CCN(C(=O)c2ccco2)CC1 (stereo not given)	>57	0%
CC(C)(C)OC(=O)NC(CCNC=C1C(=O)OC(C)(C)OC1=O)C(=O)O (stereo not given)	>57	8%
Cc1nn(Cc2ccc(Cl)c(Cl)c2)c(C)c1NC(=O)c1cc(-c2ccco2)on1	>57	u
c1csc(-c2csc(-c3cccs3)n2)c1	>57	-19%
CCC(C)NC(=O)Cn1cnc2sc(C)cc2c1=O (stereo not given)	>57	-4%
CSc1nc(-c2ccco2)nn1S(=O)(=O)c1ccccc1	>57	-6%
CNC(=O)Nc1cc(C(C)(C)C)no1	>57	0%
CCC(C)(C)n1nnnc1C(c1cc2cc(OC)c(OC)cc2[nH]c1=O)N1CCc2ccccc21 (stereo not given)	x	3%
NC(=O)C1CCCN(S(=O)(=O)c2ccccc2)C1 (stereo not given)	>57	-3%

The listing continues:
Compound	Prx2 Sm inh	LT uptake inh
COc1ccc(NC(=O)c2ccco2)cc1NC(=O)c1ccc(Br)o1	>57	u
CC(=O)c1cccc(NC(=O)N2CCCC2C(=O)NCc2ccccc2)c1 (stereo not given)	>57	4%
Cc1nn(CC(O)COc2ccc3c(c2)CCC3)c(C)c1C (stereo not given)	>57	14%
CCCC(=O)Nc1c(O)c2ccccc2[nH]c1=O	>57	-26%
COC(=O)C1=C(N)Oc2cc(C)n(Cc3cccnc3)c(=O)c2C1c1ccc(OC)c(OC)c1OC (stereo not given)	>57	-1%
CCc1nnc(NC(=O)c2ccncc2)s1	>57	u
CCOC(=O)c1cc2cc(C)ccc2[nH]1	>57	-24%
CN(C)c1cc(O)c(C(=S)Nc2ccccc2)c(N(C)C)c1	>57	u
O=C(Nc1nc(-c2ccncc2)cs1)c1ccc(S(=O)(=O)N2CCOCC2)cc1	>57	3%
CC(CN(C)Cc1ccccc1)OC(=O)c1ccc2c(c1)OCCO2 (stereo not given)	>57	u
O=C(NC1CCCCCCC1)c1ccco1	>57	-3%
COCCn1c(=NC(=O)CSC(C)=O)sc2cc(OC)ccc21	>57	8%
CN(C1CCS(=O)(=O)C1)S(=O)(=O)c1ccc(N2CCCC2=O)cc1 (stereo not given)	>57	-3%
CC1CC(C)CN(CCCn2c(=S)[nH]c3ccccc3c2=O)C1 (stereo not given)	>57	-5%
COc1cc2c(CCNC(C)=O)c[nH]c2cc1Cl	>57&>57	u
Clc1ccccc1C1CC(c2ccccc2)Nc2ncnn21 (stereo not given)	>57	-6%
Cc1ccc2c(c1)CCCN2C(=O)Nc1ccc2c(c1)OCO2	>57	-14%
COC(=O)c1[nH]c2ccc(C)cc2c1NC(=O)CN1CCCCC1C (stereo not given)	>57	15%
Cc1ccc(N)cc1-n1c(C)ccc1C	>57	5%
CC(=O)C1C(c2ccncc2)NC(=O)NC1(O)C(F)(F)F (stereo not given)	>57	-1%
CCNC(=O)CN(c1ccc(OC)c(OC)c1)S(=O)(=O)c1ccccc1	>57	11%
CON(C)c1nc(Oc2ccc(=O)[nH]n2)nc(N(C)C)n1	>57	x
CCCCNC(=O)c1c(N)n(/N=C/c2ccccn2)c2nc3ccccc3nc12	>57	2%
